A1 apoptosis 2 = blocks A1, raising caspase activity | MEF A1-2A-BIM cells, caspase-Glo luminescence, 3 h; percent of clofoctol response, DMSO zero | caspase activation, % (test concentration not listed) | 24,000 tested, under 10 active; in the data active = caspase activation above about 5.9%;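 note: wells of about 30 µL received 50 nL stock; the first replicate is given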
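Evaluation: Caspase-3/7 activity from luminescence increase | Assay system: A1-2A-BIM mouse embryonic fibroblasts | Quantity: 2500 MEF cells/well | Medium: RPMI-1640 plus 10% FBS | Detection: Caspase-Glo 3/7 luminescence, 1 h at room temperature | Dosing: 50 nL compound per well, pinned | Timing: Cells settled overnight, compound exposure 3 h at 37 °C, 5% CO2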
An asterisk follows results filed as active. The list is partial; the hit share may differ from the screen's.

Molecule	A1 apoptosis 2
CC(C)NC(=O)Nc1cccc2c1O[C@H](CN(C)C(=O)Nc1ccccc1)[C@@H](C)CN([C@H](C)CO)C2=O	0.3
O=C(N1CCCCC1)[C@@]1(CCS(=O)(=O)c2ccccc2)N=C(c2ccc(OCCCO)cc2)O[C@H]1c1ccccc1	-0.8
CC(C)NC(=O)Nc1ccc2c(c1)C(=O)N([C@H](C)CO)C[C@@H](C)[C@H](CN(C)Cc1ccc(C(F)(F)F)cc1)O2	-0.6
C[C@H](CO)N1C[C@H](C)[C@H](CN(C)S(=O)(=O)c2cn(C)cn2)Oc2ccc(NC(=O)CCN3CCOCC3)cc2CC1=O	-1.5
Cc1ccc(S(=O)(=O)Nc2ccc3c(c2)C(=O)N([C@H](C)CO)C[C@@H](C)[C@@H](CN(C)S(=O)(=O)c2cccs2)OCCCC[C@H](C)O3)cc1	0.1
C[C@H]1CN([C@@H](C)CO)C(=O)c2cc(NC(=O)Nc3cccc4ccccc34)ccc2O[C@H]1CN(C)Cc1ccc(C(=O)O)cc1	0.1
COc1ccc(S(=O)(=O)Nc2ccc3c(c2)C(=O)N([C@@H](C)CO)C[C@H](C)[C@H](CN(C)S(=O)(=O)c2ccc(Cl)cc2)O3)cc1	-0.9
C[C@@H]1CN([C@H](C)CO)C(=O)c2cc(NS(=O)(=O)c3ccc(F)cc3)ccc2O[C@H]1CN(C)C(=O)Nc1ccc2c(c1)OCO2	0.5
C[C@H]1CN([C@@H](C)CO)C(=O)c2cccc(NS(=O)(=O)c3ccc(F)cc3)c2O[C@H]1CN(C)CC1CCCCC1	-1.2
Cc1noc(C)c1NC(=O)Nc1cccc2c1O[C@@H](CN(C)S(=O)(=O)c1cn(C)cn1)[C@@H](C)CN([C@@H](C)CO)C2=O	0.1
COc1ccc(S(=O)(=O)N(C)C[C@@H]2Oc3ccc(NC(=O)Nc4c(C)noc4C)cc3CC(=O)N([C@H](C)CO)C[C@H]2C)cc1	0.8
C[C@@H]1CN([C@H](C)CO)C(=O)c2cc(NC(=O)Nc3ccccc3)ccc2O[C@H]1CN(C)Cc1ccc(C(=O)O)cc1	2.2
Cc1noc(C)c1NC(=O)Nc1ccc2c(c1)C(=O)N([C@@H](C)CO)C[C@@H](C)[C@@H](CN(C)C(=O)Nc1ccc3c(c1)OCO3)O2	0.5
C[C@H]1CN([C@@H](C)CO)C(=O)c2cccc(NC(=O)C3CCOCC3)c2O[C@@H]1CN(C)Cc1ccccc1	1.5
Cc1noc(C)c1NC(=O)Nc1ccc2c(c1)CC(=O)N([C@@H](C)CO)C[C@@H](C)[C@H](CN(C)C(=O)Nc1ccccc1)O2	0.8
COc1ccc(CN(C)C[C@@H]2Oc3ccc(NC(=O)Cc4cn(C)c5ccccc45)cc3C(=O)N([C@@H](C)CO)C[C@H]2C)cc1	0.0
C[C@@H]1CN([C@H](C)CO)C(=O)c2cc(NC(=O)C3CCCCC3)ccc2O[C@H]1CN(C)CC1CCCCC1	-1.2
COc1ccc(S(=O)(=O)Nc2ccc3c(c2)C(=O)N([C@@H](C)CO)C[C@@H](C)[C@H](CN(C)C(=O)NC2CCCCC2)OCCCC[C@@H](C)O3)cc1	0.4
C[C@@H]1CN([C@@H](C)CO)C(=O)c2cccc(NS(C)(=O)=O)c2O[C@H]1CN(C)CC1CCCCC1	-0.6
C[C@@H]1CN([C@H](C)CO)C(=O)c2cccc(NC(=O)c3cnccn3)c2O[C@H]1CN(C)S(=O)(=O)c1cn(C)cn1	-0.6
C[C@H]1CN([C@@H](C)CO)C(=O)c2cccc(NC(=O)Nc3ccc(C(F)(F)F)cc3)c2O[C@@H]1CN(C)S(C)(=O)=O	2.2
C[C@H]1CN([C@@H](C)CO)C(=O)c2cccc(NC(=O)NC3CCCCC3)c2O[C@@H]1CN(C)S(=O)(=O)c1cccs1	-0.5
CC(C)NC(=O)N(C)C[C@@H]1OCCCC[C@@H](C)Oc2ccc(NC(=O)CCC(F)(F)F)cc2C(=O)N([C@@H](C)CO)C[C@@H]1C	0.4
C[C@H]1CN([C@@H](C)CO)C(=O)Cc2cc(N(C)C)ccc2O[C@@H]1CN(C)C(=O)Nc1ccc(C(F)(F)F)cc1	-1.0
CC(C)NC(=O)N(C)C[C@H]1OCCCC[C@H](C)Oc2ccc(NC(=O)Nc3ccccc3)cc2C(=O)N([C@H](C)CO)C[C@@H]1C	0.0
C[C@@H]1CN([C@H](C)CO)C(=O)CCCn2nncc2CO[C@H]1CN(C)C(=O)CCCN(C)C	-0.3
CC(C)NC(=O)Nc1ccc2c(c1)C(=O)N([C@@H](C)CO)C[C@@H](C)[C@@H](CN(C)C(=O)c1ccncc1)OCCCC[C@@H](C)O2	-1.0
C[C@H]1CN([C@@H](C)CO)C(=O)c2cccc(NC(=O)CCCCCC(=O)Nc3ccccc3N)c2O[C@H]1CN(C)S(=O)(=O)c1cccs1	1.3
CNC[C@H]1Oc2c(NS(=O)(=O)c3cccs3)cccc2C(=O)N([C@@H](C)CO)C[C@@H]1C	-1.2
C[C@@H]1CN([C@@H](C)CO)C(=O)Cc2cc(NS(C)(=O)=O)ccc2O[C@H]1CN(C)CC1CC1	-0.2

Brought forward from above: five entries; new compounds follow.
Molecule	A1 apoptosis 2
C[C@@H]1CN([C@H](C)CO)C(=O)CCCn2nncc2CO[C@H]1CN(C)C(=O)CCCN(C)C	-0.3
CC(C)NC(=O)Nc1ccc2c(c1)C(=O)N([C@@H](C)CO)C[C@@H](C)[C@@H](CN(C)C(=O)c1ccncc1)OCCCC[C@@H](C)O2	-1.0
C[C@H]1CN([C@@H](C)CO)C(=O)c2cccc(NC(=O)CCCCCC(=O)Nc3ccccc3N)c2O[C@H]1CN(C)S(=O)(=O)c1cccs1	1.3
CNC[C@H]1Oc2c(NS(=O)(=O)c3cccs3)cccc2C(=O)N([C@@H](C)CO)C[C@@H]1C	-1.2
C[C@@H]1CN([C@@H](C)CO)C(=O)Cc2cc(NS(C)(=O)=O)ccc2O[C@H]1CN(C)CC1CC1	-0.2
COC(=O)C1=C2CC[C@H](CO)NC(=O)N[C@H](Cc3ccccc3)C(=O)NCc3cn(nn3)C[C@@H](Cc3ccccc3)NC(=O)c3oc(c(C(=O)OC)c3C(=O)OC)CC[C@H](CO)NC(=O)N[C@H](Cc3ccccc3)C(=O)NCc3cn(nn3)C[C@@H](Cc3ccccc3)NC(=O)C(=C1C(=O)OC)O2	-0.8
COc1ccc(NC(=O)N(C)C[C@@H]2Oc3ccc(NS(=O)(=O)c4c(C)noc4C)cc3C(=O)N([C@H](C)CO)C[C@@H]2C)cc1	0.6
COc1ccc(NC(=O)N(C)C[C@H]2Oc3c(NC(=O)C4CC4)cccc3C(=O)N([C@@H](C)CO)C[C@@H]2C)cc1	0.7
C[C@@H]1CCCCO[C@@H](CN(C)S(=O)(=O)c2ccccc2)[C@@H](C)CN([C@@H](C)CO)C(=O)c2cc(NC(=O)Nc3ccccc3)ccc2O1	0.6
Cc1ccc(S(=O)(=O)Nc2ccc3c(c2)C(=O)N([C@H](C)CO)C[C@@H](C)[C@@H](CN(C)C(=O)Nc2ccc4c(c2)OCO4)OCCCC[C@H](C)O3)cc1	-0.4
CCO[C@@H]1OC(C(=O)N2CCCCCCC2)=C[C@H](C)[C@H]1CCCO	0.1
CC(C)NC(=O)Nc1ccc2c(c1)CC(=O)N([C@@H](C)CO)C[C@@H](C)[C@H](CN(C)Cc1ccccc1)O2	-0.3
C[C@H](CO)N1C[C@H](C)[C@@H](CN(C)Cc2ccc(Cl)c(Cl)c2)Oc2ccc(NC(=O)Nc3ccc(F)cc3)cc2C1=O	-0.6
C[C@H](CO)N1C[C@H](C)[C@H](CN(C)C(=O)Nc2ccccc2F)OCc2cnnn2CCCC1=O	-0.3
C[C@@H]1CN([C@H](C)CO)C(=O)Cc2cc(NC(=O)Nc3ccc(C(F)(F)F)cc3)ccc2O[C@@H]1CN(C)Cc1ccc(Oc2ccccc2)cc1	0.7
C[C@@H]1CCCCO[C@@H](CN(C)C(=O)Nc2ccc3c(c2)OCO3)[C@@H](C)CN([C@H](C)CO)C(=O)c2cc(NC(=O)Nc3ccc(F)cc3)ccc2O1	-0.3
COc1ccc(S(=O)(=O)N(C)C[C@H]2OCCCC[C@@H](C)Oc3ccc(NS(=O)(=O)c4ccc(Cl)cc4)cc3C(=O)N([C@@H](C)CO)C[C@H]2C)cc1	0.2
Cc1noc(C)c1NC(=O)Nc1ccc2c(c1)CC(=O)N([C@H](C)CO)C[C@@H](C)[C@H](CN(C)S(=O)(=O)c1cn(C)cn1)O2	-2.1
Cc1ccc(S(=O)(=O)N(C)C[C@@H]2OCCCC[C@@H](C)Oc3ccc(NS(C)(=O)=O)cc3C(=O)N([C@H](C)CO)C[C@@H]2C)cc1	1.8
CC(C)NC(=O)Nc1ccc2c(c1)C(=O)N([C@H](C)CO)C[C@@H](C)[C@H](CN(C)C(=O)Nc1ccccc1)OCCCC[C@@H](C)O2	0.9
COc1ccc(NC(=O)Nc2cccc3c2O[C@H](CN(C)C(=O)Nc2ccc(F)cc2)[C@H](C)CN([C@H](C)CO)C3=O)cc1	-0.2
C[C@@H]1CN([C@H](C)CO)C(=O)Cc2cc(NC(=O)Nc3ccc4c(c3)OCO4)ccc2O[C@H]1CN(C)S(=O)(=O)c1ccc(F)cc1	-0.2
Cc1noc(C)c1NC(=O)N(C)C[C@H]1Oc2ccc(NC(=O)Nc3cccc4ccccc34)cc2CC(=O)N([C@@H](C)CO)C[C@@H]1C	-0.8
C[C@H]1CN([C@@H](C)CO)C(=O)c2cccc(NC(=O)Nc3cccc4ccccc34)c2O[C@H]1CN(C)C(=O)NC1CCCCC1	0.2
C[C@H](CO)N1C[C@H](C)[C@H](CN(C)S(=O)(=O)c2ccccc2)OCCCC[C@H](C)Oc2ccc(NC(=O)Nc3ccccc3)cc2C1=O	0.3
Cc1noc(C)c1NC(=O)Nc1ccc2c(c1)CC(=O)N([C@@H](C)CO)C[C@H](C)[C@H](CN(C)C(=O)NC(C)C)O2	-0.6
C[C@@H]1CCCCO[C@H](CN(C)Cc2ccc(C(F)(F)F)cc2)[C@@H](C)CN([C@H](C)CO)C(=O)c2cc(NC(=O)Nc3ccc4c(c3)OCO4)ccc2O1	-0.6
Cc1noc(C)c1NC(=O)N(C)C[C@H]1Oc2ccc(N(C)C)cc2CC(=O)N([C@@H](C)CO)C[C@@H]1C	-1.2
C[C@@H]1CN([C@H](C)CO)C(=O)c2cc(NC(=O)Cc3ccccc3)ccc2O[C@H]1CN(C)Cc1ccc(-c2ccccc2)cc1	-1.3
COc1ccc(CN(C)C[C@H]2OCCCC[C@@H](C)Oc3ccc(NC(=O)Cc4ccccc4)cc3C(=O)N([C@H](C)CO)C[C@@H]2C)cc1	-0.2
CCCN(C)C[C@@H]1OCCCC[C@@H](C)Oc2ccc(NS(=O)(=O)c3ccc(F)cc3)cc2C(=O)N([C@H](C)CO)C[C@@H]1C	-3.2
C[C@@H]1CN([C@H](C)CO)C(=O)c2cc(NS(C)(=O)=O)ccc2O[C@H]1CN(C)C(=O)Nc1ccc(F)cc1	-1.1
C[C@H]1ON(c2ccccc2)[C@@H](c2ccccc2)[C@@H]1C(=O)N1C(=O)OC[C@@H]1c1ccccc1	0.7
C[C@@H]1CN([C@@H](C)CO)C(=O)Cc2cc(NC(=O)C3CCCCC3)ccc2O[C@H]1CN(C)Cc1ccc(C(F)(F)F)cc1	2.6
C[C@@H]1CN([C@@H](C)CO)C(=O)Cc2cc(NC(=O)NC3CCCCC3)ccc2O[C@@H]1CN(C)C(=O)NC1CCCCC1	0.4

Two entries from above in another layout:
> C[C@@H]1CCCCO[C@@H](CN(C)S(=O)(=O)c2ccccc2)[C@@H](C)CN([C@@H](C)CO)C(=O)c2cc(NC(=O)Nc3ccccc3)ccc2O1
  A1 apoptosis 2: 0.6

> Cc1ccc(S(=O)(=O)Nc2ccc3c(c2)C(=O)N([C@H](C)CO)C[C@@H](C)[C@@H](CN(C)C(=O)Nc2ccc4c(c2)OCO4)OCCCC[C@H](C)O3)cc1
  A1 apoptosis 2: -0.4

(list continues)
Molecule	A1 apoptosis 2
C[C@H](CO)N1C[C@H](C)[C@H](CN(C)S(=O)(=O)c2cccs2)Oc2ccc(NC(=O)Nc3ccc4c(c3)OCO4)cc2CC1=O	1.2
COc1ccc2[nH]c(=O)[nH]c(=O)c2c1	0.3
COc1ccc(S(=O)(=O)N(C)C[C@H]2OCCCC[C@@H](C)Oc3ccc(NC(=O)NC(C)C)cc3C(=O)N([C@H](C)CO)C[C@@H]2C)cc1	2.5
COc1ccc(CN(C)C[C@H]2OCCCC[C@@H](C)Oc3ccc(NC(=O)Nc4ccc5c(c4)OCO5)cc3C(=O)N([C@@H](C)CO)C[C@H]2C)cc1	0.2
C[C@@H]1CN([C@@H](C)CO)C(=O)Cc2cc(NC(=O)C3CC3)ccc2O[C@@H]1CN(C)Cc1ccc(C(F)(F)F)cc1	0.2
C[C@@H]1CN([C@@H](C)CO)C(=O)c2cccc(NC(=O)NC3CCCCC3)c2O[C@H]1CN(C)C(=O)Nc1ccc(F)cc1	-0.2
CC12N=C3SCc4ccccc4CN3[C@H](c3ccccc3O1)[C@H]2CO[Si](C)(C)C(C)(C)C	0.7
C[C@@H]1CN([C@H](C)CO)C(=O)c2cc(NC(=O)Nc3ccc4c(c3)OCO4)ccc2O[C@@H](C)CCCCO[C@@H]1CN(C)C(=O)Cc1ccccc1	-0.6

Compound activity deposited in PubChem BioAssay by Broad Institute.
